miR-21 FLuc: raises the signal of a miR-21 reporter | HeLa miR-21 FLuc reporter, luciferase, 48 h | Potency, µM (titrated, usually from 38.3 µM), without a hit: top-dose reporter change, positive = more light | 340,000 tested, under 10 active; active = well fitted rising curve with a large enough effect; inconclusive = small, poorly fitted or top-dose-only effect; inactive = no such curve, though single readings can be large or run the other way;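 further: % of control where 0% means no effect; miR-21 action dims this reporter so a rising signal means less miR-21 action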
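HeLa cells endogenously expressing miR-21, stably carrying CMV-driven firefly luciferase with a downstream miR-21 binding site, 2000 cells/well. Titrations up to approximately 40 uM, 48 hours; luciferase luminescence read.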
Rango complex inh: Rango-importin beta binding inhibition | Q14974 | Rango CFP/YFP FRET sensor + importin beta, 45 min | Potency, µM (series often up to 92.2 µM), for inactives: at the highest dose inhibition of complex formation | actives 0.031% (n = 340,000); active = rising FRET ratio curve, often small or poorly fitted; inconclusive = mostly compound fluorescence or quenching in the first reads; inactive = flat curves in all reads;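 further: potency means the concentration at half of the fitted maximal effect; 0% = DMSO wells and 100% = buffer wells lacking importin beta; nearly all actives have a fitted effect of over 15% in size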
Target sequence (Q14974 whole entry, looked up): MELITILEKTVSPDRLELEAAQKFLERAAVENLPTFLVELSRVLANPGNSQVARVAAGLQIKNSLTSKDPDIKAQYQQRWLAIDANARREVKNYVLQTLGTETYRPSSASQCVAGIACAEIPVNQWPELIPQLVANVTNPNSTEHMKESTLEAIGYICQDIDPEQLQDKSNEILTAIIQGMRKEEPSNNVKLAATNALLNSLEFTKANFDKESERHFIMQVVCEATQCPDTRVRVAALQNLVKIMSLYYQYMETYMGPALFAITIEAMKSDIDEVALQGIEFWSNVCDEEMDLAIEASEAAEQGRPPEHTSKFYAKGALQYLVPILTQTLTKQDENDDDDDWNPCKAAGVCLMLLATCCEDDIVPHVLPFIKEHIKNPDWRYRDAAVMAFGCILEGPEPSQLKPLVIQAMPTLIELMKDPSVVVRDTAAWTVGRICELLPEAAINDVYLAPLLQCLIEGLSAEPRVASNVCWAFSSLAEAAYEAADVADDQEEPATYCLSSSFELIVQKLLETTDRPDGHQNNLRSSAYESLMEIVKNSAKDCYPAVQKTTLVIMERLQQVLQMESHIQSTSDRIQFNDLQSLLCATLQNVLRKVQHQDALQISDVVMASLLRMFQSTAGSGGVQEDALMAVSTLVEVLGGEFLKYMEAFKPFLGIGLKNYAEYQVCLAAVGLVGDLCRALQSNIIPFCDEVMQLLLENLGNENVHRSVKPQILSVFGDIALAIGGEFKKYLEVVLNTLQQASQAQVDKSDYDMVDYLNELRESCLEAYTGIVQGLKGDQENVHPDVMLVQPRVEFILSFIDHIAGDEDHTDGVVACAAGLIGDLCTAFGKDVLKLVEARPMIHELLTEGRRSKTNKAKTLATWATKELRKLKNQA
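FRET biosensor (snurportin 1 IBB flanked by EYFP and cerulean), 50 nM, with compound 5 min, then 0.125 microM importin beta in PBS, 1 mM DTT, 0.02% Tween-20, 0.1% BSA. CFP/YFP ratio read after 45 min at room temperature; pre-read flags interference.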
Rango release inh: prevents RanGTP from dissociating the Rango-importin beta complex. O95149+P62826. Biochemical FRET Rango-importin beta, RanGTP-induced dissociation. Potency, µM (titrated, usually from 46.1 µM), without a hit: at the top dose activity change, negative = inhibition. actives 0.071% (n = 340,000); active means falling FRET ratio curve, often poorly fitted, with flat reads before Ran was added; inconclusive means other falling curves, or compound fluorescence or quenching; inactive means flat or rising ratio curve;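 further: potency means the concentration at half of the fitted maximal effect; % of control where 0% means no effect; nearly all actives have a fitted effect of over 45% in size; -100% = wells without RanGTP and RCC1; the record marks most hits as doubtful in a second field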
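Quantitative HTS using a FRET biosensor: 0.1 uM Rango, 0.25 uM importin beta, 0.6 uM Ran, 2 mM GTP, 0.2 uM RCC1 final, PBS with DTT, Tween-20 and BSA. Post-read taken 45 min after Ran addition.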
GLA inh pH 4.5: blocks human alpha-galactosidase A at pH 4.5. purified enzyme, 4-MU-alpha-Gal fluorescence, pH 4.5. activity change, negative = inhibition, % at 105 µM. 230,000 tested, under 10 active; inconclusive = small, poorly fitted or top-dose-only inhibition, or a rising curve; inactive = flat fitted curve, though single readings scatter; no compound was filed as active;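 further: 0% = full activity with enzyme and -100% = basal without enzyme; dose as in the result columns while the protocol names 77 µM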
Starred values were filed as active, the others as inactive; u = inconclusive; x = not tested or not shown; & = joins results of further samples; [ ] = remark or other dose.

GLA inh pH 4.5	canonical_smiles	Rango complex inh	Rango release inh	miR-21 FLuc
7.5	CC(C)Oc1ccccc1OCCN(C)C	-1.8%	1.4%	2.1%
x	Cc1cc(NC(=O)Nc2ccc(Cl)cc2)n(C(C)(C)C)n1	-2.4%	3.4%	-5.5%
-11.6	CCCCNC(=S)N(C)/N=C/c1ccc(OCc2ccc(C(=O)OC)cc2)c(OC)c1	-2.9%	0.1%	-4.4%
x	O=C(NN1CCCCCC1)c1ccccc1F	3.0%	-1.9%	x
-3.9	Cc1[nH]c2ccccc2c1C(=O)CN1CCC2(CC1)OCCO2	u	14.0%	-10.3%
x	COc1ccccc1C(CNC(=O)CNC(=O)c1cccc(Cl)c1)N1CCCC1 (stereo not given)	0.2%	-15.1%	x
-9.4	C/C(=N\NC(=O)c1ccc(N/N=C(\C)c2ccc(O)cc2)cc1)c1ccc(O)cc1	u	-28.5%	-20.2%
x	COc1ccc([C@H]2CC(=O)C=C(C#CC(C)(C)C)C2)cc1	1.3%	-3.8%	x
x	O=C(NCCN1CCOCC1)c1cc(-c2cccs2)nc2ccccc12	0.3%	-11.7%	x
x	COc1cccc(CN2CC(C(=O)NC3(c4ccccc4)CC3)CCC2=O)c1 (stereo not given)	0.5%	-16.2%	-13.1%
3.7	O=C(O)c1cnn2c1NC(c1ccc(F)cc1)CC2C(F)(F)F (stereo not given)	-3.9%	0.9%	-2.6%
-4.3	CCN1CCN(C(=O)CCc2nc3ccccc3c(=O)[nH]2)CC1	-3.3%	-2.3%	-0.4%
-2.5	O=S(=O)(Nc1cccc(-c2cn3cccnc3n2)c1)c1ccc(-c2ccccc2)cc1	1.8%	-7.2%	0.4%
0.6	O=C(COC(=O)c1cccnc1Cl)NCC1CCCO1 (stereo not given)	-3.4%	24.3%	2.1%
12.0	C/C(=C\c1ccccc1)CN(C)CCN(C)C	x	x	-4.1%
-7.1	COC(=O)CSc1nnc(SCc2ccc(Cl)cc2)s1	-1.0%	0.1%	13.8%
3.9	Cc1cccc(CCNC(=O)C2CCC(=O)N2Cc2ccc(F)cc2)c1 (stereo not given)	-4.1%	1.9%	-2.0%
x	COc1ccc(NC(=O)C2CCN(S(=O)(=O)c3ccc(N4CCCC4=O)cc3)CC2)c(OC)c1	-5.1%	-14.1%	-1.5%
-4.5	CCC(C(=O)NCc1ccncc1)c1ccccc1 (stereo not given)	-0.4%	-10.3%	0.6%
-2.0	CCC1CCCCN1C(=O)COc1cc(=O)n(C)c2ccccc12 (stereo not given)	-4.7%	9.5%	-2.9%
-4.2	Cc1nonc1C(=O)N/N=C/c1ccc([N+](=O)[O-])o1	3.8%	-3.6%	16.8%
-3.3[21.1 µM]	Cc1ccccc1Cn1c(O)c(N=NC(=S)Nc2ccccc2F)c2ccccc21	0.1%	6.9%	-0.2%
2.8	COC(=O)c1cc(OC)c(OC)cc1NC(=S)N1CCCCC1	5.7%	9.9%	-6.1%
7.2	CCn1c(C)c(CS(=O)(=O)c2ccccc2)[nH]c1=O	1.1%	-7.7%	7.9%
x	Cc1ccc(C(=O)Nc2c(N)nc(SCC(=O)NCC3CCCO3)[nH]c2=O)cc1 (stereo not given)	0.5%	0.3%	3.1%

Next entries
GLA inh pH 4.5	canonical_smiles	Rango complex inh	Rango release inh	miR-21 FLuc
-2.7	Cc1cc(NC(=O)CSc2nnc(-c3ccco3)n2Cc2ccccc2)no1	-1.8%	-3.8%	-4.1%
-9.6	COc1cccc(CNC(=O)CSc2ccc(-c3ccccn3)nn2)c1	0.7%	21.0%	-0.4%
-0.9	CC(C)NC(=O)NS(=O)(=O)c1cnccc1NC1CC2CCC1C2 (stereo not given)	3.7%	-3.4%	-4.9%
x	NC(=O)c1ccccc1OCC(=O)N1CCC(Cc2ccccc2)CC1	-1.2%	-2.4%	x
2.8	Cn1c(SCC(=O)NCc2ccco2)nc2ccccc2c1=O	0.3%	-16.6%	-3.7%
x	Cc1cc(S(=O)(=O)N2CCCC2)ccc1OCC(=O)NCc1ccccn1	-2.7%	44.4%	0.0%
x	C=CC[C@H](CC(=O)NCCO)C(=O)N[C@H](COC(=O)[C@H](CC=C)CC(=O)OC(C)(C)C)c1ccccc1	-0.3%	5.8%	x
-3.5	O=C(O)c1ccc(CSCc2ccccc2F)o1	-3.8%	8.1%	-7.4%
-2.8	O=C(NCCc1c[nH]c2ccccc12)c1cc(S(=O)(=O)N2CCCCC2)ccc1N1CCOCC1	-2.8%	-3.3%	-11.4%
2.6	Cc1cc(NC(=O)COC(=O)CCCOc2ccc(Cl)cc2C)no1	0.9%	-1.8%	9.3%
4.3	COc1cc(C(=O)NC2CC3CCCC(C2)N3CC(=O)Nc2ccccc2)cc(OC)c1OC (stereo not given)	0.0%	0.4%	3.0%
x	CN(C)S(=O)(=O)c1ccc(N2CCCC2)c(C(=O)NCCc2ccc(F)cc2)c1	u	1.4%	-5.6%
x	CCCCOc1ccc(C(=O)NNC(=O)c2cnccn2)cc1OC	1.8%	48.1%	x
x	CCOC(=O)c1c(C)[nH]c(C)c1S(=O)(=O)N(C)CC(=O)Nc1ccccc1F	0.6%	-10.5%	-6.7%
0.0	COC(=O)c1ccc(NC(=O)CSC2=NCCN2)cc1	0.0%	1.1%	13.3%
x	CC(C(=O)N1CCc2ccccc21)N1CCN(S(=O)(=O)c2cccs2)CC1 (stereo not given)	-2.2%	-23.3%	x
1.7	CCCCc1ccc(NC(=S)N2CCC(O)CC2)cc1	u	-15.1%	-23.9%
6.2	Cc1ccc(-n2nnc3c(SCC(=O)NCC4CCCO4)ncnc32)cc1 (stereo not given)	-4.1%	1.4%	-7.3%
8.8	CCOC(=O)c1nc(-c2ccccc2)oc1N1CCOCC1	-0.6%	-1.0%	-2.0%
0.6	CN(C)C=Nc1ncc2c3ccccc3n(CCN(C)C)c2c1C#N	-2.5%	9.2%	u
4.8	CCc1cc2ccc(OC)cc2nc1SCC(=O)NNC(C)=O	0.9%	3.8%	-5.5%
-1.5	Cc1[nH]c2ccccc2c1/C=C/c1nc2ccccc2c(=O)n1-c1cccc([N+](=O)[O-])c1	u	-4.2%	-8.0%
x	CCCCn1c(N)c(N(CCOC)C(=O)C2CCCN(C(=O)c3ccc(Cl)cc3)C2)c(=O)[nH]c1=O (stereo not given)	2.9%	-3.1%	x
5.0	CCOC(=O)CSc1nnc(Cc2cc(=O)[nH]c(=O)[nH]2)n1-c1ccc(Cl)cc1	11.6%	-2.2%	-4.8%
x	O=C(CN(Cc1ccccc1Cl)C(=O)CNS(=O)(=O)c1ccccc1)NCC1CCCO1 (stereo not given)	1.2%	2.6%	-2.1%

(list continues)
GLA inh pH 4.5	canonical_smiles	Rango complex inh	Rango release inh	miR-21 FLuc
-26.0	Cc1c(CN2CCC(CO)(Cc3cccc(C(F)(F)F)c3)CC2)c2ccccc2n1C	-0.4%	-8.2%	u
-3.6	CCCN1C=CC(=CC=C(C#N)C#N)C=C1	u	u	-7.8%
x	CC1Sc2ccc(C(=O)Nc3ccccc3OC(F)F)cc2NC1=O (stereo not given)	3.5%	-1.1%	x
x	C=CC[C@@H](CC(=O)NCCO)C(=O)NCCOC(=O)[C@@H](CC=C)Cc1ccc(F)cc1	u	15.7%	x
x	COc1ccccc1CC(=O)NN1C(=O)NC2(CCC(C)CC2)C1=O (stereo not given)	-1.4%	-5.5%	x
-2.4	CCOC(=O)C1CCCN(c2cc(C)nc3cc(-c4ccc(Cl)cc4)nn23)C1 (stereo not given)	-0.1%	12.2%	-10.1%
7.1	O=C(COc1ccccc1Cl)NC(=S)Nc1ccc(CN2CCOCC2)cc1	0.2%	-10.2%	-9.7%
-0.5	CC(=C/C(=O)O)/C(=C\c1ccc(Br)o1)C(=O)O	4.9%	1.6%	2.6%
x	CCOC(=O)c1c(NC(=O)COC(=O)c2cnccn2)sc(C)c1C	2.1%	11.4%	x
-2.7	c1coc(-c2nc3nc4ccccc4nc3n2-c2ccc3c(c2)OCCO3)c1	-3.8%	-9.6%	-0.5%
3.5	C1CCC2(CC1)OCC1(CO2)COC2(CCCCC2)OC1	-0.1%	21.9%	-4.5%
3.8	CCc1nc(C)ccc1OCC(=O)NCCCN(C)C	-2.6%	-7.7%	-3.1%
x	CCOC(=O)C1CCN(S(=O)(=O)c2ccc(C)c(C(=O)NC3CCCCC3)c2)CC1	-1.0%	-0.2%	-4.5%
15.7	O=C(Nc1cccn(Cc2c(Cl)cccc2Cl)c1=O)C1CC1	-0.3%	-15.0%	4.4%
x	CCCCC(NC(=O)CCc1c(C)c2cc3c4c(oc3c(C)c2oc1=O)CCCC4)C(=O)O (stereo not given)	2.2%	0.7%	9.7%
-1.5	CCOC(=O)N1CCN(CC(O)COCc2ccc(OC)c(OC)c2)CC1 (stereo not given)	0.5%	10.4%	1.1%
x	Cn1cc(C(=O)NCc2ccc(Cl)cc2)c(=O)c2cc(S(=O)(=O)N3CCOCC3)ccc21	-2.4%	24.1%	-0.1%
4.6	Cc1cnn(C(=S)NCc2ccco2)c1	0.0%	-0.7%	-4.7%
x	Cc1ccc(C(=O)N/C(=C\c2cn(S(=O)(=O)N(C)C)c3ccccc23)C(=O)NCCCn2ccnc2)cc1	-4.9%	-4.4%	2.4%&0.4%
-5.0	Cc1occc1C(=O)Nc1nccs1	-4.0%	-1.3%	-7.5%
3.2	O=C(Nc1nnc(-c2ccncc2)s1)C1CCCO1 (stereo not given)	-1.8%	-9.7%	-18.2%
-0.5	CCOC(=O)C1=C(C)OC(N)=C(C#N)C1c1cccs1 (stereo not given)	2.7%	-19.9%	0.6%
-1.1	CCOC(=O)Cc1csc(NC(=O)c2c(O)c3c(n(CC(C)C)c2=O)CCCC3)n1	-4.8%	7.8%	0.2%
4.6	COc1ccc(OC)c(NC(=O)Cn2c(CCC(=O)O)ccc2-c2ccccc2)c1	2.1%	u	-6.7%&-0.7%
-4.7	Cc1ccc(NC(=O)Nc2ccc3oc(C)nc3c2)cc1	0.1%	17.9%	-16.0%

(continued)
GLA inh pH 4.5	canonical_smiles	Rango complex inh	Rango release inh	miR-21 FLuc
x	COC(=O)C1CCN(Cc2cc(=O)oc3cc(C)c(Cl)cc23)CC1	0.4%	-0.3%	-0.4%
15.2	CCc1cccc(N(C(=O)c2csnn2)C(C(=O)NC(C)(C)C)c2ccccn2)c1 (stereo not given)	3.1%	-11.8%	1.8%
x	CC(=O)N1CCN(C(=O)c2ccc3oc(CCCc4ccccc4)nc3c2)CC1	1.3%	-5.6%	-9.6%
x	Cc1ccc(C)c(OCc2cc(C(=O)N3CCOCC3)no2)c1	3.5%	-21.9%	-53.8%
4.0	Clc1ccccc1-c1nc(/C=N/N2CCOCC2)c2ccccn12	u	-19.3%	-20.3%
x	O=C(CCNS(=O)(=O)c1ccc(Br)cc1)N1CCCCCCC1	4.6%	14.0%	x
-8.4	Cc1ccccc1OCCNC(=O)/C=C/c1ccc([N+](=O)[O-])cc1	4.0%	-1.3%	-9.8%
x	Nc1nc(COC(=O)C2CC(=O)N(Cc3ccccc3)C2)nc(Nc2ccccc2)n1 (stereo not given)	-0.3%	29.3%	x
-5.7	Cc1cc(C(=O)CSc2nnc(-c3ccco3)o2)c(C)n1Cc1ccco1	1.3%	-4.9%	-23.3%
x	CNC(=O)C(=O)NCC1OCCCN1S(=O)(=O)c1ccc2c(c1)OCCO2 (stereo not given)	0.2%	3.3%	-0.9%
1.8	CC1=NN(c2ccc(F)cc2)C(=O)C1C(c1cccc(O)c1)c1c(C)[nH]n(-c2ccc(F)cc2)c1=O (stereo not given)	-2.3%	-3.4%	-3.0%
4.3	COc1cc(OC)nc(NC(=O)CCl)n1	5.1%	3.1%	5.6%
6.3	O=C(O)CCc1cccnc1	-3.0%	-8.4%	-0.2%
14.9	COCCNC(=O)c1cnn2c(C(F)(F)F)cc(-c3ccc4c(c3)OCO4)nc12	u	-19.9%	-5.2%
x	COc1ccc(CNC(=O)C2CCC(CNS(=O)(=O)c3cccc4cccnc34)CC2)cc1 (stereo not given)	10.3%	25.0%	6.0%

Assay outcomes from PubChem BioAssay.

This is a subset, so the mix of outcomes need not match the whole.
